# TRPV1 potentiator: HTS Assay for Compounds that Act as Potentiators of the Vanilloid Receptor 1 | Transient receptor potential cation channel subfamily V member 1 (Homo sapiens), Q8NER1 | TRPV1-expressing cells, Fluo-8 calcium influx, capsaicin EC20 potentiation; host cell line not named in the record; control for the full effect not named in the record | potentiation, % at 8.33 µM | actives 0.02% (n = 320,000) | AID 540277, 2011; active means potentiation above 80%; inconclusive means 30% to 80%; inactive means below 30%; also: 0% is about no effect
# Target sequence (Q8NER1 whole entry, looked up): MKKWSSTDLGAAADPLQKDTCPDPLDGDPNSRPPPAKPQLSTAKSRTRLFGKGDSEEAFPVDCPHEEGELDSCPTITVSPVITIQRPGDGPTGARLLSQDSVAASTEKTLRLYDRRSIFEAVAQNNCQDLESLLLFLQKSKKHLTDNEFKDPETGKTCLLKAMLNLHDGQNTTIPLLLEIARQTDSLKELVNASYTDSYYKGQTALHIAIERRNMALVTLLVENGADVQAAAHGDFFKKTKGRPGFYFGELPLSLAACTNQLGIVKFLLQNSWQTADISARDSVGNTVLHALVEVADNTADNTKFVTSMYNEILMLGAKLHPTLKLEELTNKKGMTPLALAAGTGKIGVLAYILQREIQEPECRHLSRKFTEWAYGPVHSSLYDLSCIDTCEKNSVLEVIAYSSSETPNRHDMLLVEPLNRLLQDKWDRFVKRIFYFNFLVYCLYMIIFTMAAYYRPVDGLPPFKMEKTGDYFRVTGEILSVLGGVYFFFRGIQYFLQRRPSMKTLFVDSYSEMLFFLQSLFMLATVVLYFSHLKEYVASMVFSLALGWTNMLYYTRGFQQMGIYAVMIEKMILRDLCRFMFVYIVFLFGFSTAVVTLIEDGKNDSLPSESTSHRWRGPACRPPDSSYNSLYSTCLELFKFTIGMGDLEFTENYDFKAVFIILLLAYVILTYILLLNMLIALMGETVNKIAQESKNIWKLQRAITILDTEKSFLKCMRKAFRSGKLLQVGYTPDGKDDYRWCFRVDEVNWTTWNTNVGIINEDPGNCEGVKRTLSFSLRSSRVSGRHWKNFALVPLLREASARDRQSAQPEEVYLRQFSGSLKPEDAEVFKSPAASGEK
#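 TRPV1-expressing cells were cultured overnight at 35.5C and loaded with Fluo-8 calcium dye for 40 to 90 min at room temperature. After a 10 s baseline, compound was added and calcium influx was read kinetically for 3 min (ex 480/em 520 nm).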
# Sfp inh: qHTS Assay for Inhibitors of Bacillus subtilis Sfp phosphopantetheinyl transferase (PPTase); 4'-phosphopantetheinyl transferase ffp (Bacillus subtilis), Q9F4F7; Biochemical Sfp PPTase activity, qHTS; Potency, µM, without a hit: max response, negative = inhibition, usual class: inhibitors; actives 3.5% (n = 310,000); active = well fitted inhibition curve with a large enough effect; inconclusive = small, poorly fitted or top-dose-only effect, or another doubt; inactive = no such curve, though single readings can be large or run the other way;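 also: the enzyme is Sfp with the accession as filed and its product quenches rhodamine fluorescence; potency is read from the fitted curve at half-maximal effect; 0% = enzyme reaction without inhibitor and -100% = no enzyme wells; top concentration of the series not given in the record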
#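 Fluorescence-quenching assay with 15 nM Sfp, 5 uM rhodamine-CoA and 12.5 uM BHQ-2-labelled ybbR peptide in pH 7.6 Hepes/MgCl2 buffer. Enzyme was pre-incubated with compound for 15 min at room temperature. Rate was taken from the 30-min fluorescence change (525/598 nm).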
# PINK1 expr mod: A Quantitative High throughput Screen to Identify Chemical Modulators of PINK1 Expression; PINK1 immunofluorescence, high-content cytometry, 24 h; Potency, µM (series often up to 76.6 µM), for inactives: at the top dose activation (PINK1 increase), most hits filed as activators; actives 0.2% (n = 410,000); active = well fitted activation curve with a large enough effect; inconclusive = small, poorly fitted or top-dose-only effect; inactive = flat fitted curve, though single readings scatter; cell line not stated here;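 also: potency is read from the fitted curve at half-maximal effect; % of control where 0% means no effect; nearly all actives have a fitted effect of over 65% in size; a mitochondrial uncoupler was the plate control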
#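 Fluorescence from anti-PINK1 antibody, together with nuclear and cell stains, was scanned on a laser-scanning cytometer. Before staining, stable-line cells were incubated 24 hours with compounds at 5 concentrations; primary antibody 12 h at 10 degrees C.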
# TRPML1 ag: qHTS for Agonists of the Human Mucolipin Transient Receptor Potential 1 (TRPML1); actives 0.12% (n = 410,000); Mucolipin-1 (Homo sapiens), Q9GZU1; activation, % (concentration not given with the values); AID 624414, 2012; TRPML1-expressing cells, Ca2+ dye fluorescence, FDSS; host cell line not named in the record; reference of the full effect not given here; in the data active = activation above about 50%; inconclusive = about 30% to 50%; inactive = below about 30%; also: 0% is about no effect; the text of the record puts the active cut at 80%
#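 Cells: TRPML1-DL, 1X Tet inducer, ~16 h at 37 degrees C/5% CO2. Dye: ABD Ca8 no-wash + quencher, 45-90 min RT. Read: 10 s baseline, compound add, 110 s agonist phase; 54-4 EC80 (4uM final), 110 s antagonist phase.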
# TRPML1 blocker: qHTS for Inhibitors of the Human Mucolipin Transient Receptor Potential 1 (TRPML1) | Mucolipin-1 (Homo sapiens), Q9GZU1 | activity change, negative = inhibition, % (no concentration beside the values) | actives 0.02% (n = 390,000) | TRPML1-inducible cells, Ca2+ dye fluorescence, FDSS; stronger effect = lower value; inhibition of EC80 agonist-evoked calcium signal; in the data active means activity change below about -50%; inconclusive means about -30% to -50%; inactive means above about -30%;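 also: stimulus is agonist 54-4 at its EC80 concentration; % is scaled to controls: 0 for no effect and ±100 for the full control effect; compound concentration not given in the record; the text of the record puts the active cut at -80%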
#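 TRPML1-DL cells, Tet-induced overnight (~16 h, 37 °C) at 1,500 cells/well, were loaded with Ca8 no-wash dye plus quencher for 45-90 min at room temperature. Compounds were pinned during FDSS kinetic reading; agonist 54-4 at EC80 (4 uM final) then added.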
# Menin-MLL FL inh: qHTS Assay for Inhibitors Targeting the Menin-MLL Interaction in MLL Related Leukemias: Competition With Fluorescein Labeled MLL-derived Peptide | Fluorescence polarization, fluorescein-MLL peptide displacement from menin | FP activity change, % at 61.4 µM | 290,000 tested, under 10 active; inconclusive = falling polarisation curve, or a change in total fluorescence; inactive = total fluorescence flat and polarisation flat or rising; no compound was filed as active; the % refers to the polarisation; negative = inhibition;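 also: % of control where 0% means no effect; inhibitors lower the polarisation; unlabelled MLL peptide was the positive control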
# ClpP mod: qHTS Assay for Activators of ClpP; purified B. subtilis ClpP, FRET peptide cleavage, 20 min; Potency, µM (highest dose often 57.5 µM), inactives show top-dose activity change, negative = active; actives 1.9% (n = 340,000); active = well fitted falling curve with a large enough effect; inconclusive = small, poorly fitted or top-dose-only effect; inactive = no such curve, though single readings can be large or run the other way; also: potency is read from the fitted curve at half-maximal effect; the source files actives as falling curves though it sought activators and does not explain the sign; nearly all actives have a fitted effect of over 65% in size; many hits overshoot -100%
# Target sequence (P80244 whole entry, looked up): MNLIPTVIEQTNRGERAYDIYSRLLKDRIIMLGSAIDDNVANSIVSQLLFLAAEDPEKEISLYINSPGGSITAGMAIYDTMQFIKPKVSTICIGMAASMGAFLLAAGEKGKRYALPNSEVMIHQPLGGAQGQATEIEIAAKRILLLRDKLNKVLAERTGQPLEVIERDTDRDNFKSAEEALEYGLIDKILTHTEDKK
#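 Purified B. subtilis ClpP, 10 microg/mL final in Tris/HCl pH8 with KCl, BSA, glycerol and Tween-20, cleaved an Abz/nitrotyrosine-quenched decapeptide. Fluorescence (ex 320, em 430) was read at 0 and 20 min at room temperature. Delta was normalized to 5.8 microM ADEP and DMSO/no-enzyme controls.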
# An asterisk follows results filed as active; ? = inconclusive; . = not tested or not shown; & = joins results of further samples; [ ] = remark or other dose.
no.	mol	TRPV1 potentiator	Sfp inh	PINK1 expr mod	TRPML1 ag	TRPML1 blocker	Menin-MLL FL inh	ClpP mod
1	O=C(CC[C@H]1O[C@@H](n2ccc(=O)[nH]c2=O)[C@H](O)[C@@H]1O)N[C@@H](Cc1ccccc1)C(=O)NCC1CCCCC1	.	.	-0.6%	-0.7	.	.	-0.2%
2	Cc1nc(-c2ccccc2)sc1C1(C)CC(c2c(Cl)cccc2Cl)=NO1 (configuration not stated)	15.1	8.0%	4.1%	1.8	78.4	-1.3	?
3	CNC(=S)N/N=C(\C)c1ccc(-n2ccnc2)cc1	27.9	-9.8%	.	-0.4	3.6	-1.5	-1.3%
4	[O-]/C(=C(\C(=S)Nc1cccc2ccccc12)[n+]1ccccc1)c1cccs1	-2.6	?	0.6%	-0.3	-5.9	3.8	.
5	Cc1cccc(Cn2ccc(NC(=O)c3cccnc3)n2)c1	-1.0	15.5%	0.5%	0.2	15.3	-1.2	0.4%
6	O=C(Cn1c(=O)oc2cc(S(=O)(=O)N3CCCC3)ccc21)NCc1ccc(F)cc1	-11.8	3.7%	-4.8%&-0.9%	1.4&-0.1	?	0.2	-3.8%&-3.4%
7	COc1ccccc1NC(=O)C1=C(C)Nc2nc(SCc3ccccc3)nn2C1c1cccc(O)c1 (configuration not stated)	.	.	-1.5%	1.1	-4.6	.	-14.1%
8	Cc1[nH]c2ccccc2c1C(=O)C(=O)NCc1nnnn1-c1ccc(F)c(F)c1	.	.	-0.3%	-0.6	9.1	.	-0.8%
9	OCCC1CN(Cc2cccnc2)CCN1CCc1ccccc1 (configuration not stated)	0.1	13.0%	-1.8%	0.3	17.6	-1.1	.
10	CCN(C(=O)COC(=O)C1CCN(S(=O)(=O)c2cccs2)CC1)c1ccccc1	9.5	13.1%	0.3%	-1.0	-5.7	-4.8	.
11	COCCCNC(=S)Nc1cc(C)c(C)cc1C	3.4	21.3%	-1.0%	1.8	-1.6	-4.0	.
12	COc1ccc(NC(=O)C2(C)CCN2Cc2ccc(C(C)C)cc2)cc1OC (configuration not stated)	.	.	1.5%	-1.0	.	.	1.3%
13	CCOC(=O)c1ccc(NC(=O)c2cc(=O)[nH]c3ccccc23)cc1	-4.1	3.2%	0.1%	1.2	3.9	-6.9	-7.3%
14	O=C(CCOc1cccc(Br)c1)NNC(=O)COc1ccc(F)cc1	9.4	.	6.8%	0.4	-11.4	.	0.7%
15	CNS(=O)(=O)c1cccc(C(=O)OCc2csc(-c3ccccc3)n2)c1	1.3	-4.6%	2.9%	2.6	44.0	1.2	-2.0%
16	COc1ccc(CCNC(=O)C2CCN(S(=O)(=O)c3ccc(-n4cnnn4)cc3)CC2)cc1OC	-8.3	8.9%	4.3%[38.3 µM]	0.1	-3.7	0.4	-0.3%
17	CCOc1ccccc1N1CN(Cc2ccccc2)CNC1=S	11.2	-6.6%	3.6%	0.1	-15.6	2.1	-0.7%
18	CCOC(=O)Cn1nc(-c2ccc(Cl)cc2)cc1N	-0.1	?	0.1%	-0.9	2.3	-0.5	-0.5%
19	Cc1ccc(C(=O)Nc2c(-c3ccccc3)nc3ccccn23)cc1C	.	.	0.7%	-0.1	34.4	.	1.2%
20	CN(C)c1ccc(-c2ccncc2)cc1	-5.6	24.3%	.	.	.	3.7	.
21	Cn1c(=O)oc2cc(S(=O)(=O)NCCCN3CCCC3=O)ccc21	.	-12.2%	-0.8%	-0.1	-3.7	-8.6	-1.7%
22	O=C(Nc1nn[nH]n1)C12CC3CC(CC(C3)C1)C2	19.3	-20.0%	0.5%[38.3 µM]	-0.4	-10.0	4.3	1.1%
23	Cc1c(CCOC(=O)c2cc([N+](=O)[O-])ccc2Cl)sc[n+]1CCCCS(=O)(=O)[O-]	-6.6	8.6%	0.7%	-0.1	-8.8	0.4	-1.3%
24	COCCCNC(=O)C1CCN(Cc2cc3ccccc3n2Cc2cccc(Cl)c2)CC1	.	.	?	1.3	-9.6	.	-0.6%
25	CCc1ccccc1SCc1noc(C(=O)NCC2CCCO2)c1C(=O)O (configuration not stated)	11.7	-6.4%	0.3%	-0.7	12.3	1.1	2.0%
26	NC(=O)COC(=O)C1CSC2(c3ccc(F)cc3)CCC(=O)N12 (configuration not stated)	-1.3	2.1%	-2.8%	1.2	-4.1	0.3	.
27	CC1CCN(c2nc(-c3ccc(Br)cc3)nc3ccccc23)CC1	.	.	4.5%	1.8	-7.9	.	-0.2%
28	COc1ccc(Cl)cc1C=CC=NNC(=O)c1ccncc1	.	.	13.6%	-0.4	7.8	.	-1.5%
29	CC1(C)N=C(N)N=C(N)N1c1cccc(C(=O)O)c1	2.1	4.5%	5.1%[38.3 µM]	5.2	-11.4	1.3	-9.3%
30	CCOC(=O)CCc1c(C)c2ccc(OCc3ccc([N+](=O)[O-])cc3)cc2oc1=O	1.1	18.5%	-0.9%	-1.0	-2.1	2.1	-2.3%

# Overlap with the part before: four entries, then new ones.
no.	mol	TRPV1 potentiator	Sfp inh	PINK1 expr mod	TRPML1 ag	TRPML1 blocker	Menin-MLL FL inh	ClpP mod
27	CC1CCN(c2nc(-c3ccc(Br)cc3)nc3ccccc23)CC1	.	.	4.5%	1.8	-7.9	.	-0.2%
28	COc1ccc(Cl)cc1C=CC=NNC(=O)c1ccncc1	.	.	13.6%	-0.4	7.8	.	-1.5%
29	CC1(C)N=C(N)N=C(N)N1c1cccc(C(=O)O)c1	2.1	4.5%	5.1%[38.3 µM]	5.2	-11.4	1.3	-9.3%
30	CCOC(=O)CCc1c(C)c2ccc(OCc3ccc([N+](=O)[O-])cc3)cc2oc1=O	1.1	18.5%	-0.9%	-1.0	-2.1	2.1	-2.3%
31	CCOc1ccc(CNC(=O)CCCC(=O)n2nc(C)c3ccccc32)cc1	-3.5	3.4%	8.0%	0.7	?	.	-0.2%
32	Clc1cc2cccnc2c2ccccc12	16.1	-22.6%	8.5%	-1.1	16.4	1.5	-2.3%
33	CC12CCC(=O)N1c1ccccc1C(=O)N2c1ccccc1 (configuration not stated)	10.2	0.8%	.	0.1	6.2	1.2	-4.0%
34	COc1cc2c(cc1OC)C1c3ccc(OC)c(OC)c3OCC1(O)C2 (configuration not stated)	.	.	6.6%	0.6	-15.7	.	.
35	O=C1c2cccc3c([N+](=O)[O-])ccc(c23)C(=O)N1CC1CCCO1 (configuration not stated)	-30.3	-4.7%	0.8%	4.9	11.9	?	.
36	CC(C)(C)c1cc(Cl)ccc1OCCOCCN1CCCC1	2.0	?	-1.5%	0.2	-13.7	0.2	.
37	Cc1oc(-c2ccc3c(c2)OCCO3)cc1C(=O)O	-28.3	?	2.4%	-0.4	-15.8	3.0	?
38	CCOc1ccc(Oc2ccc(Cl)cc2NC(=O)C2=COCCO2)cc1	6.9	.	-1.7%	-0.1	15.3	.	-3.4%
39	N#CN=C1SCCS1	2.7	2.1%	0.3%	-1.0	33.6	-6.6	-4.9%
40	Cc1ccccc1Cn1ccn(-c2ccc(F)c(F)c2)c(=O)c1=O	.	.	1.3%	-0.7	-1.0	.	-0.5%
41	CCOC(=O)C1=CCN(S(=O)(=O)c2ccc(Br)cc2)C1c1ccccc1 (configuration not stated)	.	.	3.8%	0.1	.	.	-0.5%
42	CC1C=CCC2C(=O)N(c3cccc(C(=O)NCCc4ccccc4)c3)C(=O)C12 (configuration not stated)	-13.7	5.7%	-0.4%	.	.	9.5	-5.2%
43	Cc1cc(/C=C2/C(=N)N3C(c4ccccc4)=CSC3=NC2=O)c(C)n1-c1ccc(Cl)cc1	.	.	0.3%	0.3	6.7	.	.
44	Cc1ccc(C(=O)C(C)OC(=O)Cn2c(C)csc2=O)cc1 (configuration not stated)	17.3	8.1%	0.1%	0.4	21.1	.	-3.0%
45	Cc1cc2cc(C=C(C#N)C#N)c(Cl)nc2cc1C	-0.8	?	0.4%	13.8	-23.5	?	4.6%
46	Cc1ccccc1NC(=O)Cc1nc(COC(=O)C(NC(=O)c2ccccc2C)C(C)C)cs1 (configuration not stated)	?	.	1.5%	1.7	0.1	.	-1.5%
47	CCOc1ccc(CCNC(=O)CSc2nn(-c3ccc(C)c(Cl)c3)c(=S)s2)cc1OCC	-10.5	12.2%	9.1%	-0.3	4.1	7.4	1.1%
48	COc1ccc(/C(C)=N/N=C(N)N)c(OC)c1	-4.5	4.2%	4.5%	0.8	7.8	4.1	-0.7%
49	CCOc1ccc(CNC(=O)C2Cc3cc(S(=O)(=O)N4CCCC4)ccc3N2C(C)=O)cc1 (configuration not stated)	-16.2	3.7%	-1.5%	0.3	10.2	.	-1.3%
50	CC(C)c1nc(N2CCN(C(=O)c3ccco3)CC2)c2c3c(sc2n1)CCCC3	-16.9	-18.7%	0.5%[38.3 µM]	1.7	-11.7	0.4	?
51	CCCCNC(NCCCC)=C(S(=O)(=O)CC)S(=O)(=O)CC	-13.1	-4.3%	4.2%[38.3 µM]	-0.5	-1.6	0.2	-0.3%
52	COCCSc1ccccc1C(=O)N1CCc2ccccc2C1	-11.2	21.3%	1.1%	0.1	12.0	-0.7	.

# 3 entries out of the list, ordered by length of the SMILES, ascending.
no.	mol	TRPV1 potentiator	Sfp inh	PINK1 expr mod	TRPML1 ag	TRPML1 blocker	Menin-MLL FL inh	ClpP mod
37	Cc1oc(-c2ccc3c(c2)OCCO3)cc1C(=O)O	-28.3	?	2.4%	-0.4	-15.8	3.0	?
42	CC1C=CCC2C(=O)N(c3cccc(C(=O)NCCc4ccccc4)c3)C(=O)C12 (configuration not stated)	-13.7	5.7%	-0.4%	.	.	9.5	-5.2%
47	CCOc1ccc(CCNC(=O)CSc2nn(-c3ccc(C)c(Cl)c3)c(=S)s2)cc1OCC	-10.5	12.2%	9.1%	-0.3	4.1	7.4	1.1%
